D2 agonist = agonists of human D2 dopamine receptor (beta-arrestin); P14416; actives 0.084% (n = 360,000); activation, % (test concentration not listed); DiscoveRx PathHunter D2 beta-arrestin, luminescence, 90 min; 100% = 57 uM dopamine signal; in the data active = activation above about 40%; inconclusive = about 15% to 40%; inactive = below about 15%; further: compound concentration not given in the record; the text of the record calls up to 30% inactive
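Agonist mode: compounds alone added to overnight-plated D2 PathHunter cells for 90 min at 37 C, with 57 uM final dopamine (EC100) defining full response. Beta-arrestin recruitment detected by chemiluminescent reagent, read after 1 h at ambient temperature.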
CtBP-E1A blk = CtBP/E1A binding inhibition; AID 651724; actives 0.49% (n = 340,000); activity change, % (test concentration not listed); AlphaScreen GST-E1A/His-CtBP binding, 1536-well; active compounds read low; control for the full effect not named in the record; in the data active means activity change below about -65%; inconclusive means about -30% to -65%; inactive means above about -30%; further: on the % scale 0 is the no-effect control and ±100 the full control effect
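GST-E1A and His-tagged CtBP (125 nM each as 5X stock) were preincubated with pin-transferred compound for 2 h at 37 °C in the dark, then glutathione donor and nickel acceptor beads were added for 1 h before AlphaScreen reading.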
Sfp PPTase inh = Sfp phosphopantetheinyl transferase inhibition. AID 1490. Biochemical Sfp PPTase activity, qHTS. actives 3.5% (n = 310,000). Potency, µM, for inactives: max response, negative = inhibition, actives largely listed as inhibitors; active means well fitted inhibition curve with a large enough effect; inconclusive means small, poorly fitted or top-dose-only effect, or another doubt; inactive means no such curve, though single readings can be large or run the other way;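 further: the enzyme is Sfp with the accession as filed and its product quenches rhodamine fluorescence; potency means the concentration at half of the fitted maximal effect; 0% = enzyme reaction without inhibitor and -100% = no enzyme wells; top concentration of the series not given in the record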
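With Hepes-Na pH 7.6 buffer containing 10 mM MgCl2, Sfp (15 nM) modified BHQ-2-YbbR (12.5 uM) using rhodamine-CoA (5 uM). Two reads 30 minutes apart at 525/598 nm yielded each well's rate.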
PINK1 expr mod = PINK1 expression modulation; PINK1 immunofluorescence, high-content cytometry, 24 h; Potency, µM (top dose mostly 76.6 µM), inactives show top-dose activation (PINK1 increase), usual class: activators; actives 0.2% (n = 410,000); active = well fitted activation curve with a large enough effect; inconclusive = small, poorly fitted or top-dose-only effect; inactive = flat fitted curve, though single readings scatter; cell line not stated here;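 further: potency means the concentration at half of the fitted maximal effect; % of control where 0% means no effect; nearly all actives have a fitted effect of over 65% in size; a mitochondrial uncoupler was the plate control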
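A stable cell line was treated with compounds at 5 concentrations for 24 hours, with CCCP as control. PINK1 levels and mitochondrial localization were measured by immunofluorescence with mitochondrial, cell and nuclear markers after fixation, read by laser-scanning cytometry.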
Six1-Eya2 blk = blocks human Six1 binding to Eya2; AID 651725; AlphaScreen GST-Six1/His-Eya2 binding, biochemical; active compounds read low; control for the full effect not named in the record; actives 0.56% (n = 360,000); activity change, % (concentration not given with the values); in the data active = activity change below about -65%; inconclusive = about -30% to -65%; inactive = above about -30%; further: on the % scale 0 is the no-effect control and ±100 the full control effect
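Compounds are tested against tagged Six1 and Eya2 proteins bridged by glutathione donor and nickel acceptor beads; after a one-hour incubation at 37 °C without light, AlphaScreen emission is recorded.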
TRPV1 PAM = enhances activation of the human vanilloid receptor TRPV1; Q8NER1; potentiation, % at 8.33 µM; actives 0.02% (n = 320,000); TRPV1-expressing cells, Fluo-8 calcium influx, capsaicin EC20 potentiation; host cell line not named in the record; control for the full effect not named in the record; active means potentiation above 80%; inconclusive means 30% to 80%; inactive means below 30%; further: 0% is about no effect
Target sequence (Q8NER1 whole entry, looked up): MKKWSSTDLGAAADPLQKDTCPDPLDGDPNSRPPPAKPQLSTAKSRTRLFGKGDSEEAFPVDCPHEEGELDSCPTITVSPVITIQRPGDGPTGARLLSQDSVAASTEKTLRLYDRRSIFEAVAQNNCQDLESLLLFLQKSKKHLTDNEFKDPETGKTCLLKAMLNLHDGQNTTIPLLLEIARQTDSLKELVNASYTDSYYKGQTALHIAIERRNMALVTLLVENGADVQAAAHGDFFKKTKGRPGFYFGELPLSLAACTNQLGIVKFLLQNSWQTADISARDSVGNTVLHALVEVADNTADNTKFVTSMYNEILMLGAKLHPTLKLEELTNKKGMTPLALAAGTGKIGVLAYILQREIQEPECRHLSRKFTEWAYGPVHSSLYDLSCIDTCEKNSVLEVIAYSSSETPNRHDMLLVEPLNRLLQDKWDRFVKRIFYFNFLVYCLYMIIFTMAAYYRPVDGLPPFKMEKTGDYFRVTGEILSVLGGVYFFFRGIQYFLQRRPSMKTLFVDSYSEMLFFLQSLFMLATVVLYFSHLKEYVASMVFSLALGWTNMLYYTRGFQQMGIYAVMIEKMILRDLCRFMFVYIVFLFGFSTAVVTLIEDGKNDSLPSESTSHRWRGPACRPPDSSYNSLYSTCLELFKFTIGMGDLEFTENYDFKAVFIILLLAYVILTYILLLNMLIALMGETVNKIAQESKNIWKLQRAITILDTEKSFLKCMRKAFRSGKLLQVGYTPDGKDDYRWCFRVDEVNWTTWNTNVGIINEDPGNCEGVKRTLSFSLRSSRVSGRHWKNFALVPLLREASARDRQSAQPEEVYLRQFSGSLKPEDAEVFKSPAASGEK
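Fluo-8 calcium influx in TRPV1-expressing cells, kinetic read (ex 480/em 520 nm). Compound added and read 3 min for agonist activity, followed by capsaicin at EC20 final and 2 min further read for enhancement.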
D2 PAM = potentiates the human D2 dopamine receptor allosterically | P14416 | potentiation, % (no concentration beside the values) | AID 624464 | actives 0.23% (n = 360,000) | DiscoveRx D2 beta-arrestin cells, luminescence, 90 min; 100% = 57 uM dopamine signal; active = potentiation of 50% or more; inconclusive = 30% to 50%; inactive = 30% or less;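 further: compound concentration not given in the record; tested on top of an EC20 dose of dopamine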
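PathHunter beta-arrestin assay in DiscoveRx D2 cells. Compounds were added with an EC20 of dopamine (50 nM final) for 90 min at 37 deg C. Luminescence was read 1 h after detection reagent, with 57 uM dopamine as the EC100 control.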
* marks the source's active call; other numbers are inactive results; ? = inconclusive; nt = no result given; [ ] = dose if it differs, or a comment.

mol | D2 PAM | PINK1 expr mod | Sfp PPTase inh | Six1-Eya2 blk | TRPV1 PAM | D2 agonist | CtBP-E1A blk
COc1ccc(C2CC(=O)C3=C(C2)Nc2ccccc2N(C(=O)C2CC2)C3c2cccnc2)cc1OC (stereo not drawn) | 0 | ? | -23% | -5 | 4 | -1.1 | -11
CCN(CC)C(=O)Cn1c(=O)n(CCCC(=O)NCc2ccccc2)c(=O)c2sccc21 | 0 | -0.1% | 17% | 4 | 8 | 0.3 | 0
C=CCn1c(N)c(C(=O)OC(C)CC)c2nc3ccccc3nc21 (stereo not drawn) | -6 | ? | 4% | -1 | -6 | -2.3 | -3
CN(C)S(=O)(=O)c1cccn1-c1ncc(C(F)(F)F)cc1Cl | 1 | 0.0% | 16% | 3 | -3 | -1.6 | 2
O=C(CN(C(=O)c1cccc([N+](=O)[O-])c1)C1CCCCC1)Nc1ccc(Cl)c([N+](=O)[O-])c1 | -2 | 4.6% | 8% | 0 | -3 | -2.2 | 3
CC1CCN(C(C)C(=O)Nc2cc(S(=O)(=O)N3CCCCC3)ccc2Cl)CC1 (stereo not drawn) | -12 | 4.6% | nt | 0 | -5 | -1.7 | 10
CC1CCc2c(sc(/N=C/c3cccnc3)c2C(N)=O)C1 (stereo not drawn) | -1 | 1.2% | 50µM* | 0 | 17 | -3.9 | -15
O=C(NCCCO)c1cc2c([nH]c3ccccc32)c(-c2ccccc2)n1 | -1 | 0.8% | -8% | -22 | -4 | -3.8 | -15
Cc1ccccc1Cn1c(=O)[nH]c2ccccc21 | -2 | 2.1% | -2% | -5 | -7 | 0.4 | 3
CCOc1ccc(S(=O)(=O)Nc2cccc(Cl)c2)cc1 | 4 | 6.3%[38.3 µM] | nt | 1 | nt | -0.5 | -17
Cc1cc(NC(=O)CCC(=O)N(Cc2cccs2)C(C(=O)NC2CCCC2)c2cccnc2)no1 (stereo not drawn) | 7 | -6.5% | 27% | 6 | 1 | -1.8 | -15
Cc1c(C(=O)O)[nH]c2ccc([N+](=O)[O-])cc12 | -5 | -0.9% | 4% | -2 | 4 | -3.5 | -4
Cc1ccc(S(=O)(=O)NCC(=O)N2CCOCCOCCOCCOCC2)cc1 | -9 | 0.2% | 7% | 11 | 5 | -4.7 | 12
CCCCCCn1c(CN2CCCCC2C)nc2c1c(=O)n(C)c(=O)n2C (stereo not drawn) | -1 | 1.4%[38.3 µM] | 21% | -2 | -1 | 1.5 | -15
O=Cc1ccc(OCc2cn(CC(=O)c3ccc(O)cc3)nn2)cc1 | 0 | 0.3% | nt | 8 | nt | -4.2 | -3
CN(Cc1ccccc1)c1ncc(C=O)s1 | -4 | 1.6% | -12% | 1 | -9 | 3.1 | -1

A different layout for 4 compounds above:
Molecule: CCOc1ccc(S(=O)(=O)Nc2cccc(Cl)c2)cc1
  D2 PAM: 4 | PINK1 expr mod: 6.3%[38.3 µM] | Sfp PPTase inh: nt | Six1-Eya2 blk: 1 | TRPV1 PAM: nt | D2 agonist: -0.5 | CtBP-E1A blk: -17
Molecule: Cc1cc(NC(=O)CCC(=O)N(Cc2cccs2)C(C(=O)NC2CCCC2)c2cccnc2)no1 (stereo not drawn)
  D2 PAM: 7 | PINK1 expr mod: -6.5% | Sfp PPTase inh: 27% | Six1-Eya2 blk: 6 | TRPV1 PAM: 1 | D2 agonist: -1.8 | CtBP-E1A blk: -15
Molecule: Cc1c(C(=O)O)[nH]c2ccc([N+](=O)[O-])cc12
  D2 PAM: -5 | PINK1 expr mod: -0.9% | Sfp PPTase inh: 4% | Six1-Eya2 blk: -2 | TRPV1 PAM: 4 | D2 agonist: -3.5 | CtBP-E1A blk: -4
Molecule: Cc1ccc(S(=O)(=O)NCC(=O)N2CCOCCOCCOCCOCC2)cc1
  D2 PAM: -9 | PINK1 expr mod: 0.2% | Sfp PPTase inh: 7% | Six1-Eya2 blk: 11 | TRPV1 PAM: 5 | D2 agonist: -4.7 | CtBP-E1A blk: 12

The list continues:
mol | D2 PAM | PINK1 expr mod | Sfp PPTase inh | Six1-Eya2 blk | TRPV1 PAM | D2 agonist | CtBP-E1A blk
N#Cc1cccc(NC(=O)CNC(=O)Cc2ccccc2)c1 | -4 | 0.8% | 10% | 4 | -2 | -5.7 | 5
c1ccc(CSc2nc3ncccn3n2)cc1 | 0 | 3.7% | nt | 7 | 18 | 4.7 | 7
CCCCOC(=O)CCc1c(C)[nH]c(=O)c(C#N)c1C | -10 | -0.8% | 23% | -1 | -5 | -2.4 | 3
CC(C)OC(=O)C1C2C=CC3(CN(C(C)c4ccc(Br)cc4)C(=O)C13)O2 (stereo not drawn) | 0 | 4.8% | 5% | 4 | nt | 0.3 | 4
Nc1ncnc(Oc2cccc(C(F)(F)F)c2)c1[N+](=O)[O-] | -32 | 0.3% | 18% | 1 | 5 | -5.6 | -2
Cc1cc(F)ccc1C(O)c1ncc(-c2ccccc2Cl)[nH]1 (stereo not drawn) | -7 | 0.2% | nt | 0 | nt | -6.8 | -2
c1ccc(-c2nn3c(Cn4cnc5ccccc54)nnc3s2)cc1 | -1 | -3.2%[38.3 µM] | 10µM* | 1 | 14 | -1.7 | -3
O=C(CSc1nc2[nH]c(=O)cc(O)c2s1)Nc1ccc(Cl)c(C(F)(F)F)c1 | 2 | 4.7% | nt | 2 | 1 | -1.2 | 6
CC(C)OC(=O)CSc1nnc(-c2cccnc2)n1N | -22 | -1.4% | 12% | -4 | 3 | 0.5 | -1
Cc1ccc(NS(=O)(=O)c2cc(C(=O)O)ccc2Cl)c(C)c1 | 19 | 1.0% | 19% | 1 | 0 | -0.1 | 2
COc1cc(-c2nn3c(-c4ccccc4)nnc3s2)cc(OC)c1OC | -6 | 2.4% | -4% | -27 | -3 | -0.4 | ?
CC(C)Cc1cc(C(=O)Nc2c(F)cc(F)cc2Br)no1 | 0 | 3.5% | 25% | 7 | -2 | 1.9 | 5
CC(C(=O)N1CCN(c2ccccc2F)CC1)c1ccc([N+](=O)[O-])cc1 (stereo not drawn) | 2 | -0.4% | -2% | 0 | -7 | -1.6 | -15
S=c1[nH]ccn1-c1cccc(Cl)c1Cl | -19 | 0.5% | -20% | 0 | 4 | -5.0 | nt
CCc1nc2c(OCc3cc(Cl)cc(Cl)c3)cccn2c1N(C)C(=O)Nc1ccccc1OC | -10 | -0.2% | nt | -18 | nt | -4.7 | ?
O=C(OCCN1CCN(C2=NS(=O)(=O)c3ccccc32)CC1)c1ccccc1F | -13 | -1.2% | 7% | -1 | 2 | -1.6 | -5
CN(C(=O)CSc1nnc(-c2ccncc2)n1-c1ccccc1)C1CCS(=O)(=O)C1 (stereo not drawn) | -2 | 2.2% | 9% | 3 | 0 | -2.1 | -3
O=C(Nc1ccc2c(c1)Cc1ccccc1-2)c1cccnc1 | -16 | -1.1% | 0% | 2 | -1 | 4.8 | nt
Cc1ccccc1NC(=O)c1ccccc1 | -6 | 4.3% | 10% | 2 | 8 | -2.8 | 8
COc1ccc(OC)c(C2=NO[C@@](CC(=O)O)(C(=O)Nc3ccc4c(c3)OCCO4)C2)c1 | 1 | 2.4% | 17% | -23 | -19 | -3.6 | 0
Cc1cc(C)cc(N(C(=O)c2csnn2)C(C(=O)NC(C)(C)C)c2cccs2)c1 (stereo not drawn) | -8 | -4.1%[38.3 µM] | 9% | 4 | -11 | 0.8 | 2
CCOC(=O)[C@]12CCC=C1N(Cc1ccc(Cl)cc1Cl)C(=O)[C@H](CC(=O)N1CCSCC1)C2 | nt | 1.5% | nt | -4 | nt | nt | -16
CCc1c(C)nc2ncnn2c1N1CCCC(C(=O)NCCc2ccccc2)C1 (stereo not drawn) | -1 | 1.4%[38.3 µM] | 13% | 1 | -2 | -0.2 | 7
O=C(CCNC(=O)C1CCN(S(=O)(=O)c2ccccc2)CC1)NCc1ccccn1 | -10 | -1.3% | -3% | 7 | -6 | 0.3 | 2
CC1(C(=O)NS(=O)(=O)C2CC2)CCN(C(=O)c2ccc(F)cc2Cl)C1 (stereo not drawn) | 5 | 2.2% | nt | 2 | nt | 7.3 | 6
CS(=O)(=O)c1ccc(C(=O)OCC(=O)Nc2cccnc2Cl)cc1[N+](=O)[O-] | 0 | -0.2% | nt | -11 | nt | 3.1 | -23
O=C(CNc1cccc(C(F)(F)F)c1)N/N=C/c1cccc(Br)c1 | -20 | -1.5% | ? | -7 | 5 | -1.1 | -15
CCOC(=O)C1(C)CCN1C(=O)c1ccc(C#N)cc1 (stereo not drawn) | -5 | -0.2% | nt | 1 | nt | -6.2 | 5
CC1CC(=O)Nc2ccccc2N1S(=O)(=O)c1ccc(Cl)cc1 (stereo not drawn) | -17 | 3.7% | 29% | 5 | -4 | -3.8 | nt
C=CCn1c(CCNC(=O)c2cccs2)nnc1SCC(=O)Nc1cccc(F)c1 | -1 | -8.1%[38.3 µM] | 19% | 0 | -3 | 1.1 | 1
Nc1nnc(SCCCOc2ccc(F)cc2)s1 | 14 | 1.2% | -7% | 9 | -8 | 6.5 | 6
COc1cccc(C2=CC(c3cc(OC)ccc3OC)n3nnnc3N2)c1 (stereo not drawn) | -2 | -0.6% | -8% | -8 | -1 | -3.4 | -6
Cc1nn(CC(=O)OCC(=O)NC(C)c2ccccc2)c(C)c1[N+](=O)[O-] (stereo not drawn) | -5 | -0.2% | -6% | 1 | -1 | 3.8 | nt
C/C(=N\OC(=O)c1ccc(F)cc1)c1nccs1 | -1 | 0.1% | -3% | 2 | 28 | -1.5 | 0
CCc1nc2c(OCc3ccccc3)cccn2c1N(C)C(=O)c1ccco1 | -6 | 4.0% | nt | -3 | nt | -5.1 | -4
COc1cccc2sc(NN)nc12 | -6 | 3.1% | 50µM* | -20 | 4 | -2.0 | -2
Cc1ccc(NCC(=O)c2ccc([N+](=O)[O-])cc2)cc1 | 11 | 1.9% | 20µM* | ? | 15 | ? | -23
Nc1cc(C(=O)c2ccccc2)ccc1N1CCOCC1 | 6 | -0.5% | 6% | 8 | -13 | -0.8 | 8
CCCC1SCC(C)(C)NC1=O (stereo not drawn) | -16 | -4.0% | nt | 8 | nt | -2.3 | 12
COc1cc(NC(C(=O)Nc2cccc(C(C)=O)c2)c2ccccc2)cc(OC)c1OC (stereo not drawn) | -6 | 7.4% | -17% | -8 | ? | -2.3 | -24
CCOC(=O)NC(=O)CN1C(=O)NC2(CCc3ccccc32)C1=O (stereo not drawn) | 3 | 0.0% | 10% | 17 | 13 | -2.9 | 0
CCOc1ccc(S(=O)(=O)N(CC)CC(=O)N2CCCC2)cc1 | -39 | -0.5% | 4% | 0 | 5 | -0.3 | nt
CN(C)C(=O)CSc1nnc(CCNC(=O)OC(C)(C)C)o1 | -1 | 2.3% | 10% | 4 | -10 | -1.9 | 0
O=C(CNS(=O)(=O)/C=C/c1ccccc1)OC1CCOC1=O (stereo not drawn) | 3 | 0.3% | ? | 11 | 1 | -2.4 | 0
